High-throughput results deposited in PubChem BioAssay by National Center for Advancing Translational Sciences (NCATS).
NS1 inh: inhibitors of influenza NS1 protein function; S. cerevisiae slowed by influenza A NS1, growth recovery by OD600; Potency, µM (top dose mostly 46.1 µM), inactives show at the highest dose activity, positive = more growth; actives 0.4% (n = 270,000); further: actives are rising curves; nearly all actives have a fitted effect of over 50% in size
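In this qHTS, NS1 from influenza A is expressed in budding yeast, where it slows growth. Cells are switched from glucose to 2% galactose medium (pH 6.0, -URA), treated with compound, and growth recovery is read at OD600.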
SARS PLP yeast: blocks SARS-CoV papain-like protease in a yeast assay; AID 485353; Potency, µM (titrated, usually from 32.9 µM), for inactives: top-dose activity, positive = growth rescue; S. cerevisiae expressing SARS-CoV PLpro, growth rescue; control for the full effect not named in the record; actives 0.19% (n = 330,000); further: 0% is about no effect; nearly all actives have a fitted effect of over 55% in size; growth read by luminescence after 48 h
* = called active by the depositor; u = inconclusive; [ ] = another dose, or the depositor's remark. The call rests on the fitted dose curve; in most records, active means well fitted rising curve with a large enough effect; inconclusive means small, poorly fitted or top-dose-only effect; inactive means no such curve, though single readings can be large or run the other way. Potency means the concentration at half of the fitted maximal effect. This is a subset, so the mix of outcomes need not match the whole.

Start of the data: the first 6 compounds, ahead of the listing:
SMILES	NS1 inh	SARS PLP yeast
COc1cc2c(cc1OC)C1O[C@](CCCCN3C(=O)c4ccccc4C3=O)(C2)OC2=C1C(=O)c1ccccc1C2=O	24%	1%[6.58 µM]
CCNc1cc(N2CCNCC2)ccc1[N+](=O)[O-]	u	0%
O=C(NC(=S)NC1CCSC1=O)c1ccc([N+](=O)[O-])cc1 (configuration not stated)	9%	6%
O=C1N=c2ccc(Br)cc2=C1c1sc(=O)[nH]c1O	-34%	-4%
CCOc1ccccc1-c1nc2c(C(C)(C)C)nn(C)c2c(=O)[nH]1	2%	0%
CCCCCCNC(=O)N[C@H](Cc1ccc(O)cc1)C(=O)NCCC[C@H]1CN2C(=NC[C@H]2CCC)N1CC1CCC1	-51%	-1%

The whole of this part, from the start:
SMILES	NS1 inh	SARS PLP yeast
COc1cc2c(cc1OC)C1O[C@](CCCCN3C(=O)c4ccccc4C3=O)(C2)OC2=C1C(=O)c1ccccc1C2=O	24%	1%[6.58 µM]
CCNc1cc(N2CCNCC2)ccc1[N+](=O)[O-]	u	0%
O=C(NC(=S)NC1CCSC1=O)c1ccc([N+](=O)[O-])cc1 (configuration not stated)	9%	6%
O=C1N=c2ccc(Br)cc2=C1c1sc(=O)[nH]c1O	-34%	-4%
CCOc1ccccc1-c1nc2c(C(C)(C)C)nn(C)c2c(=O)[nH]1	2%	0%
CCCCCCNC(=O)N[C@H](Cc1ccc(O)cc1)C(=O)NCCC[C@H]1CN2C(=NC[C@H]2CCC)N1CC1CCC1	-51%	-1%
COc1ccc(N(CC(=O)NCCSC2CCCCC2)S(=O)(=O)c2ccccc2)c(OC)c1	4µM*	0%
COc1cc([C@@H]2c3cc4c(cc3[C@@H](O)[C@@H](CO)[C@@H]2CO)OCO4)cc(OC)c1O[Si](C)(C)C(C)(C)C	1%	-4%
CCCCOc1cccc(C2C(C(=O)c3ccc(C)o3)=C(O)C(=O)N2Cc2ccco2)c1 (configuration not stated)	3%	0%
Cc1cccc(N=Nc2c(C)[nH]n(C(N)=S)c2=O)c1C	2%	10%
Cc1cc2c(n1-c1ccc(C(=O)O)cc1)CCCCC2	10%	-1%
COC(=O)c1ccc(/C=N/Nc2nc(-c3ccc(Cl)cc3Cl)cs2)cc1	-4%	1%
COc1ccc(-c2ccc(CNCc3ccccn3)o2)cc1Cl	9%	3%
CC1OC(OC2C(OC3C(O[C@H]4CC[C@]5(C)C6C=C[C@]78OC[C@@]9(CC[C@@H](C)[C@H](C)C97)[C@H](O)C[C@@]8(C)[C@]6(C)CC[C@H]5C4(C)C)OC(C)C(O)C3O)OC(CO)C(O)C2O)C(O)C(O)C1O (some centres not stated)	-100%	-3%
CCC(NC(=S)NC1CCCCC1)c1ccc(C)cc1 (configuration not stated)	-87%	-5%
CCCC[C@]12Cc3cc(C#N)ccc3C(O1)c1c(cc(C)n(-c3ccccc3)c1=O)O2	23%	-4%[6.58 µM]
COc1cccc(NC(=O)c2cc3cccc(OC)c3o/c2=N\O)c1	6%	-2%
CCN(CC)c1ccc2cc(C(=O)NCc3ccc(F)cc3)c(=N)oc2c1	14%	0%
N#CC(C#N)=Cc1ccccc1OCc1ccccc1	-51%	-3%
O=C(Nc1ccc(Cl)cc1)/C(=C/c1ccc([N+](=O)[O-])cc1)c1nc2ccccc2s1	-4%	-2%
Cc1nc2ccccc2c2c1C(=O)NC2=O	-1%	-1%
CC(=O)Nc1ccc(/C=C/C(=O)c2ccccc2)cc1	-9%	-3%
Cc1cc2c(c(=O)n1Cc1ccccc1)C1O[C@](CCCCN3C(=O)c4ccccc4C3=O)(Cc3cc(C#N)ccc31)O2	20%	8%[6.58 µM]
Cc1cc(C)nc(NC(=O)CSc2ncccn2)n1	-3%	0%
O=C(N/N=C/c1ccc2nccnc2c1)c1ccccc1O	-1%	1%

Continued, overlapping the part above by 6 compounds.
SMILES	NS1 inh	SARS PLP yeast
O=C(Nc1ccc(Cl)cc1)/C(=C/c1ccc([N+](=O)[O-])cc1)c1nc2ccccc2s1	-4%	-2%
Cc1nc2ccccc2c2c1C(=O)NC2=O	-1%	-1%
CC(=O)Nc1ccc(/C=C/C(=O)c2ccccc2)cc1	-9%	-3%
Cc1cc2c(c(=O)n1Cc1ccccc1)C1O[C@](CCCCN3C(=O)c4ccccc4C3=O)(Cc3cc(C#N)ccc31)O2	20%	8%[6.58 µM]
Cc1cc(C)nc(NC(=O)CSc2ncccn2)n1	-3%	0%
O=C(N/N=C/c1ccc2nccnc2c1)c1ccccc1O	-1%	1%
COc1ccc(N=Nc2n(C)c3ccccc3[n+]2C)cc1	-81%	-3%
Cn1c(SCC(=O)NCc2ccc(F)cc2)nc2c([nH]c3ccccc32)c1=O	0%	1%
O=C(COC(=O)c1sc2cc(Cl)ccc2c1Cl)Nc1ncc(Cl)cc1Cl	-2%	1%
COc1ccc(NC(=O)c2cccc(C(=O)Nc3ccc(OC)cc3)n2)cc1	2%	0%
COc1ccc(Nc2nc(Cl)nc(N3CCN(c4ccc(OC)cc4)CC3)n2)cc1	1%	1%
CCC(C(=O)OCC(=O)Nc1cccc(S(=O)(=O)NC2=NCCCCC2)c1)c1ccccc1 (configuration not stated)	15%	-1%
O=C(CSc1nnc(Cc2cc(=O)[nH]c(=O)[nH]2)n1-c1ccc(Cl)cc1)N1CCc2ccccc21	-2%	2%
COCCN1C(=S)N[C@@H](c2ccccc2)C(C(=O)OC)=C1C	-4%	10%
CCOc1ccc(NC(=O)CC)cc1	0%	-2%
O=C1CSC(=S)N1/N=C/c1cc(Br)ccc1O	4%	-6%
CCCC(=O)NCc1ccncc1	4%	1%
COc1ccc(C2=NNC(c3cc(Cl)cc4c3OCOC4)C2)c(O)c1 (configuration not stated)	15%	0%
CCOC(=O)C1=NN(C(=O)c2cccc(Br)c2)C(O)(C(C)(C)C)C1 (configuration not stated)	-11%	0%
Cc1ccc(NC(=S)NC(=O)c2sc3ccccc3c2Cl)c(C(=O)O)c1	-3%	0%
FC(F)(F)c1cccc(NC(=S)NNC(=S)Nc2cccc(C(F)(F)F)c2)c1	-61%	-7%
COc1ccc(C(=O)C2CCCN(Cc3c(C)[nH]c4ccccc34)C2)c(OC)c1 (configuration not stated)	2%	-1%
Cc1cccc(N2CCN(C(=O)c3ccc4c(c3)NC(=O)C(CSCc3ccc(F)cc3)N4)CC2C)c1 (configuration not stated)	0%	5%
COc1cc(C2NCCc3c2[nH]c2ccccc32)ccc1OC(C)C (configuration not stated)	-1%	12%
CC(=O)c1ccc(N2CCN(C(=O)c3ccc4c(Cl)c5c(nc4c3)CCCC5)CC2)cc1	4%	1%
CCOC(=O)c1cc(C(=O)Nc2ccc(S(=O)(=O)Nc3ccc(OC)cc3)cc2)nn1C	-24%	4%
COc1ccc(/C=C2\SC(=Nc3ccccc3)NC2=O)cc1	5%	-3%
Cc1cccc2cc(CN(CC3CCCO3)C(=O)c3ccco3)c3nnnn3c12 (configuration not stated)	2%	1%
CCC(CC)C(=O)Nc1ccncc1	2%	-1%
Cc1ccnc(N2C(=O)c3ccc([N+](=O)[O-])cc3C2=O)c1	-2%	20%
O=C(CCl)N1c2ccccc2CCc2ccccc21	-24%	-2%
Other structures follow:
SMILES	NS1 inh	SARS PLP yeast
CNc1nc(SC)n(C)c(=O)c1N=O	1%	5%
Cc1ccc(Cl)cc1N1CCN(C(=O)c2ccc3c(c2)CCN3S(C)(=O)=O)CC1	4%	-3%
CCN(CC)CCn1c(=S)[nH]c2cc(C(=O)N3CC=C(c4ccccc4)CC3)ccc2c1=O	9%	4%
CCn1cc(NC(=O)CCl)c(C)n1	2%	3%
COC(=O)N/N=C(/c1ccccc1)C1CCCCC1	0%	-1%
O=C(CCCCCNC(=O)c1ccccc1)N=Nc1c(O)[nH]c2c(Br)cc(Br)cc12	7%	-1%
Cn1c(=O)c2c(ncn2CC(=O)N/N=C/c2c[nH]c3ccccc23)n(C)c1=O	0%	1%
CCCC[C@]12Cc3cc(C#N)ccc3C(O1)c1c(c3cc(F)ccc3oc1=O)O2	18%	3%[6.58 µM]
CC(=O)Nc1ccc(S(=O)(=O)Nc2ccc3c(c2)C(=O)OC3)cc1	8%	-2%
CCCn1cc2c3c(cccc31)C1CC(C)CN(C)C1C2 (configuration not stated)	-3%	5%
CN(C)c1ccc(/C=C2\C(=N)N3C(=NC2=O)Sc2cc(S(C)(=O)=O)ccc23)cc1	6%	2%
Cc1cc2c(c(=O)o1)C1O[C@](CCCCN3C(=O)c4ccccc4C3=O)(Cc3cc(C#N)ccc31)O2	u	6%[6.58 µM]
CC(=O)NN1C(=O)c2ccc(Oc3ccc4c(c3)C(=O)N(NC(C)=O)C4=O)cc2C1=O	1%	1%
C=CCN=C1N[C@@H](c2ccc(Br)cc2)C(C(=O)OC)=C(C)N1Cc1ccccc1	4%	-1%
Cc1cccc2cc(CN(Cc3cccnc3)C(=O)c3cccs3)c3nnnn3c12	1%	0%
O=C(O)c1sc2cc(Cl)ccc2c1Cl	-48%	6%
Cc1cccc(/C(N)=N/OC(=O)c2cccc3ccccc23)c1	-100%	-22%
O=C(c1cccnc1)N1CCN(c2ccccc2Cl)CC1	-12%	1%
COc1ccc(OC)c(/C=C/c2ccc3cccc(O)c3n2)c1	-10%	-5%
Cc1ccc(C(C)C)c(OCC(=O)NN=C(CCl)CCl)c1	1%	1%
COc1cccc(CN2CCNC(=O)C2CC(=O)N(C)CCc2ccccn2)c1OC (configuration not stated)	2%	1%
Cc1ccc2nc3nc(NCC4CCCO4)c(C(=O)NC4CCCCC4)cc3c(=O)n2c1 (configuration not stated)	-4%	-2%
CC(C)n1nc(C(=O)N2CCN(S(=O)(=O)c3cccs3)CC2)c2ccccc2c1=O	-4%	-4%
COc1ccccc1/C=N/N1C(=O)C(CC(=O)Nc2ccc([N+](=O)[O-])cc2OC)SC1=Nc1cccc(C)c1C (configuration not stated)	8%	1%
CC1OC(O[C@H]2CC[C@]3(C)C4C=C[C@]56OC[C@@]7(CC[C@@H](C)[C@H](C)C75)[C@H](O)C[C@@]6(C)[C@]4(C)CC[C@H]3C2(C)C)C(OC2OC(CO)C(O)C(O)C2OC2OCC(O)C(O)C2O)C(O)C1O (some centres not stated)	-67%	0%
The listing continues:
SMILES	NS1 inh	SARS PLP yeast
O=C1C(=O)N(c2nccs2)C(c2ccccc2)/C1=C(\O)c1ccc2c(c1)OCCO2 (configuration not stated)	17%	-3%
COc1ccc([C@]23Cc4cc(C#N)ccc4C(O2)C2=C(CC4(CCCCC4)OC2=O)O3)cc1	u	-2%[6.58 µM]
CCc1ccc(/C=C2/SC(=S)N(CCC(=O)Nc3ccc(C(=O)O)cc3)C2=O)cc1	0%	-1%
S=C(NCCc1cccc(Cl)c1)NCc1ccccc1	-70%	-3%
Cc1ccc(OCc2ccc(Br)cc2)c([N+](=O)[O-])n1	-5%	-1%
OC(CN1CCNCC1)Cn1ccc2ccccc21 (configuration not stated)	13%	-7%
O=C(O)C1CCC(N2C(=O)c3c(Cl)c(Cl)c(Cl)c(Cl)c3C2=O)CC1 (configuration not stated)	6%	0%
O=C(CN1CCSCC1)N/N=C/c1ccc(Cl)cc1	5%	0%
COc1cc(/C(C)=C/c2ccccc2)c2c(c1)oc1ccccc12	4%	4%
Cc1ccc2nc(C)c(CN3CCN(c4ccc([N+](=O)[O-])cc4Cl)CC3)n2c1	-29%	-3%
O=C(NCc1nc2ccccc2[nH]1)C1=C[C@@H](c2ccc3c(c2)OCO3)C[C@@H](OCc2ccc(CO)cc2)O1	-35%	-3%
Cc1cccc(/C=C2/Sc3ccc(C(=O)NCCCN4CCOCC4)cc3NC2=O)c1	3%	-1%
O=[N+]([O-])c1cc(C=Nc2cccc3c(O)cccc23)ccc1Cl	-18%	-6%
C/C(=N\O)C1CCCCC1	0%	1%
CC(=O)OCCCN1C(=O)c2cccc3cc(Br)cc(c23)C1=O	-7%	-3%
COc1ccc2c3c(c(=O)oc2c1)C1O[C@](c2ccsc2)(Cc2ccccc21)O3	6%	-5%[6.58 µM]
COc1cccc(-c2ccc(=O)n(CC(=O)Nc3ccc(S(=O)(=O)NCC(C)C)cc3)n2)c1	8%	-1%
O=C(Nc1ccccc1-c1ccccc1)C(=O)Nc1ccccc1-c1ccccc1	5%	-2%
C#CCOCCOCCOCCNc1nc(N2CCN(C(=O)[C@H]([C@@H](C)CC)n3cc([C@@H](N)CO)nn3)CC2)nc(N2CCN(C(=O)[C@H](Cc3cc4ccccc4[nH]3)n3cc([C@@H](N)C(C)CC)nn3)CC2)n1 (some centres not stated)	5%	-3%
CC(=O)c1ccc(NC(=O)C(C)Sc2nnc(C3CCCCC3)o2)cc1 (configuration not stated)	-13%	1%
C/C(=N\Nc1ccc([N+](=O)[O-])cc1[N+](=O)[O-])c1cc2c(ccc3ccccc32)oc1=O	-7%	1%
